Source: PubChem (several laboratories)
Beta cell apopt = blocks beta cell apoptosis. 300,000 compounds, 0.8% hits. protection from apoptosis, % (test concentration not listed). INS-1E cytokine-induced death, ATP luminescence, 48 h; percent of positive-control rescue, neutral wells zero;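 active = all replicates at 75% or more, or half of them and the mean; inconclusive = half reach 75% but not the mean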;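 also: 0% = cytokine-treated negative control wells and 100% = positive control rescue; higher means more ATP so stronger rescue from cytokine killing; wells of about 40 µL received 100 nL stock; the first replicate is given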
UCH37 DUB inh = inhibitors of human deubiquitinating enzyme UCH37. 330,000 compounds, 0.33% hits. AID 588478. inhibition, % (concentration not given with the values). Q9Y5K5. purified proteasome/UCH37, Ub-AMC cleavage fluorescence;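 active = mean of two replicates above 20%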;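 also: 0% = compound-free wells with enzyme and 100% = wells lacking proteasome; stock transfer was 100 nL into about 20 µL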
Target sequence (Q9Y5K5 whole entry, looked up): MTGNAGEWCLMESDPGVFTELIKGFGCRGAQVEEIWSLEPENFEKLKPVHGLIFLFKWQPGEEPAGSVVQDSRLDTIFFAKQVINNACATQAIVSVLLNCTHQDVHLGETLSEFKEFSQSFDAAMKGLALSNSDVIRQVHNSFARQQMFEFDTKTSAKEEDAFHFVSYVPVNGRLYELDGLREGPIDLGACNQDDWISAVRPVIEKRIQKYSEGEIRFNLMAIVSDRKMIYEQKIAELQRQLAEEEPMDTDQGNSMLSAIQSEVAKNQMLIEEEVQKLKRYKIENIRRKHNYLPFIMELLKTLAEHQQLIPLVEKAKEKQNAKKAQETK
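Test system – human UCH37 enzyme supplied as purified proteasome complex · Incubation – 30 min preincubation with enzyme, 25 min cleavage at room temperature · Detection – AMC fluorescence from Ub-AMC cleavage, excitation 355 nm, emission 460 nm · Benchmarks – no-proteasome wells (full inhibition) and compound-free wells (no inhibition)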
Ecoli growth = inhibitors of Escherichia coli growth | 330,000 compounds, 0.21% hits | OD600, 23 h; active compounds read low | OD600 absorbance (no concentration beside the values);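 active = OD600 absorbance below the run mean of sample wells minus 3.6 SD, in any replicate, cut at about 0.56 in these data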;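 also: stock transfer was 300 nL into about 60 µL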
Ecoli rRNA inh = inhibits bacterial ribosomal RNA function over humanized ribosomes; E. coli WT GFP vs humanized-ribosome RFP mutants, fluorescence, 24 h; active compounds read low; DMSO median 0, no signal -100; GFP signal change (wild-type ribosome), % (no concentration beside the values); 350,000 compounds, 1.6% hits; AID 720706;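 active = significant combined selectivity score with lowered wild-type GFP, culture density cut under 30%, mutant RFP and density less affected; inactive = any of these conditions unmet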; also: one replicate is shown; some compounds called inactive have numbers as strong as hits
MLL AF4-AF9 inh = inhibitors of human MLL-AF4/AF9 interaction. P42568. AlphaScreen, biotin-AF4 peptide binding to FLAG-AF9. 350,000 compounds, 0.47% hits. inhibition, % at 10 µM;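 active = every replicate reaching a set inhibition limit, whatever the replicate mean, cut at about 25% in these data; inconclusive = mean inhibition reaches that limit but some replicates miss it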;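 also: 0% = plate neutral control median and 100% = total signal loss; the record names both 10 and 1 µM as test concentration; the first replicate is given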
Target sequence (P42568 whole entry, looked up): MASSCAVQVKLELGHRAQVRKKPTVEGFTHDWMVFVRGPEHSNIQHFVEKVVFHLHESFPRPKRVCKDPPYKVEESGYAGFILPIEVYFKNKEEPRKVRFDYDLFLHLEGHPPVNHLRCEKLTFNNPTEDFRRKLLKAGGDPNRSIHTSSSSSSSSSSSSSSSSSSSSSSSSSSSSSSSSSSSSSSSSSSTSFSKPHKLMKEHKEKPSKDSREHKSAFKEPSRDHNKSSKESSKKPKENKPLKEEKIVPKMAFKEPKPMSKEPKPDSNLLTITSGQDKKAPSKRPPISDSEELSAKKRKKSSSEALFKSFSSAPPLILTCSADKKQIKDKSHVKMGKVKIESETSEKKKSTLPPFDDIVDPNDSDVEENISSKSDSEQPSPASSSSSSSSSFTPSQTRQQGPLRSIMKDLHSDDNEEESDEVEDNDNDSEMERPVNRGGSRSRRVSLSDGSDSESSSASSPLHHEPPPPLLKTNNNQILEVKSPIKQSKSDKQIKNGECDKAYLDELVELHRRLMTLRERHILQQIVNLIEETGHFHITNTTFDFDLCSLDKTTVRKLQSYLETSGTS
T cruzi repl = T. cruzi replication inhibition; inhibition, % (no concentration beside the values); 300,000 compounds, 1.4% hits; T. cruzi beta-gal in NIH3T3, luminescence, 90 h;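 active = mean inhibition across valid replicates above about 55%, limit read from the data; inconclusive = mean below that limit but half or more replicates reach it; inactive = mean below it, under half of replicates reach it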;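 also: signal also drops with host cell toxicity which is not excluded here; 0% = plate median of DMSO wells and 100% = zero luminescence signal; higher percent means less beta-gal luminescence so fewer parasites; stock transfer was 50 nL into about 50 µL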
Bfl-1 A1 inh = inhibitors of the anti-apoptotic protein A1, read as caspase activation. MEF A1-2A-BIM cells, Caspase-Glo 3/7 luminescence, 3 h; percent of clofoctol response, vehicle zero. caspase activation, % (concentration not given with the values). 330,000 compounds, 0.066% hits. AID 2462;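 active = over half of replicate activation scores above 10%, or exactly half above 10 with the replicate mean above 10; inconclusive = replicate mean below 10 yet half the replicates above 10; inactive = over half of replicates below 10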;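 also: wells of about 30 µL received 50 nL stock; many hits fall short of the cut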
FGF22 binding = binders of recombinant human FGF22 by thermal shift | Q9HCT0 | SYPRO orange fluorescence; percent of sucrose octasulfate shift, DMSO zero | calls only at 9.99 µM | 340,000 compounds, 1.5% hits;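 active = melting point raised past a set limit in the mean and every replicate; inconclusive = no clear call; three in four hits are not shown here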
Target sequence (Q9HCT0 whole entry, looked up): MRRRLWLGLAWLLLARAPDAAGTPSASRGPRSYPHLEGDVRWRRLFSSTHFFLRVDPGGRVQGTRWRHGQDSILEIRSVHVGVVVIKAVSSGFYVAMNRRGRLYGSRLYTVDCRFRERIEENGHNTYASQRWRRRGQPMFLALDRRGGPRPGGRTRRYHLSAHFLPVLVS
Ecoli rRNA inh OD600 = further read-out of Ecoli rRNA inh, marked with its call; OD600 change, %; measured here: OD600 growth;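 optical density of the mix in the first replicate; 0 = DMSO median and -100 = no signal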
Ecoli rRNA inh RFP = second read-out of Ecoli rRNA inh, no call of its own (marks repeat the call); RFP signal change, %; measured here: RFP humanized mutant strains;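 first replicate; 0 = DMSO median and -100 = no signal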
Active calls of the source: *; i = inactive; ? = inconclusive; / = not tested or not shown. An excerpt, so the mix of outcomes need not match the whole.

SMILES	Beta cell apopt	UCH37 DUB inh	Ecoli growth	Ecoli rRNA inh	Ecoli rRNA inh OD600	Ecoli rRNA inh RFP	MLL AF4-AF9 inh	T cruzi repl	Bfl-1 A1 inh	FGF22 binding
CN(CC(=O)Nc1cccc(F)c1)C(=O)CCCN1C(=O)c2cccc3cccc(c23)C1=O	2	-26	0.7	-30	-61	-4.2	-7.0	10	1.6	i
COCCNC(=O)CSc1nc(-c2ccc(OC)c(OC)c2)cc(C(F)(F)F)n1	-2	-18	0.73	/	/	/	/	8	0.6	/
COc1ccc(NC(=O)C(C)N=C2NS(=O)(=O)c3ccccc32)cc1S(N)(=O)=O (centres undefined)	-1	5.6	0.69	6	3	-1.9	-1.0	/	0.7	i
COC(=O)c1ccc2c(=O)n(CCCN3CCCC3=O)c(=S)[nH]c2c1	3	1.6	0.71	4	22	15	5.9	4	0.4	i
CN(C)S(=O)(=O)c1ccc(C(=O)N2CCN(S(=O)(=O)c3ccc4c(c3)OCCO4)CC2)cc1	/	5.5	0.65	-5	4	-5.8	-15	/	/	i
CC(OC(=O)CNS(=O)(=O)c1ccc(C#N)cc1)C(=O)Nc1ccc(Cl)cn1 (centres undefined)	-15	2.2	0.7	2	-2	-2.0	-1.3	4	0.5	i
O=C(CNc1cccc(C(F)(F)F)c1)N/N=C/c1cn(-c2ccccc2)nc1-c1ccccc1	6	/	/	6	-6	1.6	-2.2	51	0.3	i
C#CCOCCOCCOCCNc1nc(N2CCN(C(=O)CCCCCCCCCCNC(=O)[C@@H](CCC(=O)O)n3cc(CCCCCN)nn3)CC2)nc(N2CCN(C(=O)CCCCCCCCCCNC(=O)[C@@H](CCC(=O)O)n3cc(CCCCCN)nn3)CC2)n1	-3	3.7	/	2	-16	7.8	8.5	/	3.0	i
Clc1ccccc1Cc1noc(CN2CCN3CCCC3C2)n1 (centres undefined)	6	1.4	0.69	12	12	4.5	0.2	25	0.9	i
COc1ccc(CCN2CC(C(=O)N(C)CCOc3ccccc3)CCC2=O)cc1 (centres undefined)	-1	0.2	0.7	-10	-15	-3.6	-0.8	-7	0.2	i
COc1ccccc1CNC(=O)c1cc(S(=O)(=O)N2CCCCC2)c[nH]1	-3	4.6	0.7	4	4	-1.4	-4.5	2	0.5	i
CC(=O)c1sc(=S)n(-c2ccccc2)c1C	0	15	0.7	/	/	/	5.4	-8	1.0	i
COCCCNC(=S)Nc1ccc2c(c1)OCCO2	-3	0.7	0.71	/	/	/	/	-2	0.9	/
COc1ccccc1N1CCN(C(=O)c2cc(C)oc2C)CC1	-6	0.4	0.7	10	1	0.4	1.7	-3	-0.4	i
CCOC(=O)CSCC(=O)Nc1ccc(S(=O)(=O)N2CCCCC2)cc1	-6	-4.8	0.68	/	/	/	/	4	-0.5	/
COc1ccc(-n2ccsc2=S)cc1	-4	3.2	0.7	5	5	-2.7	2.4	-19	-0.2	i
CCOC(=O)c1ccc(N2CN(CC)CNC2=S)cc1	0	2.2	0.68	/	/	/	/	-23	-0.5	/
COc1ccc(CC(=O)OCC(=O)c2ccc(F)cc2)cc1	-6	1.3	0.68	0	-2	2.8	-3.4	/	1.9	i
Cc1ccc(S(=O)(=O)NCc2ccncc2)c(C)c1C	116*	1.3	0.68	16	0	3.9	-3.4	-56	-0.1	i
Cc1ccc(-n2nnnc2CSc2nnc(-c3ccc(O)cc3)o2)cc1	-1	7.5	0.66	/	/	/	/	0	0.4	/
CCc1ccccc1N1C(=O)CC(N2CCc3ccccc32)C1=O (centres undefined)	-9	-1.0	0.71	11	2	0.2	0.3	-6	0.2	i
CCOC(=O)c1cccc(NS(=O)(=O)c2c(C)[nH]c(C)c2C(=O)N2CCCC2)c1	-4	1.7	0.67	5	9	-1.5	0.9	3	1.2	i
CCOc1ccc(C(=O)OCC(=O)Nc2cc(C)on2)cc1OCC	-3	1.9	0.72	/	/	/	/	-7	-0.3	/
Cc1ccc(C)c(SCC(=O)Nc2nnc(-c3ccccc3)o2)c1	-19	1.1	0.71	/	/	/	/	-17	0.3	/
O=C(Nc1ccc(Cl)cc1)c1cc(Br)ccc1OCC(=O)N1CCOCC1	/	0.0	0.68	/	/	/	-1.6	21	1.0	i
Cc1nnc(SCc2cc(=O)[nH]c(Nc3nc(C)c4cc(C)c(C)cc4n3)n2)s1	/	3.2	0.64	14	-5	-4.2	-2.9	26	0.2	i
CC(C)NC(=O)c1ccc2c3n(nc2c1)-c1ccc(Cl)cc1CO3	13	-2.5	0.69	5	-1	1.7	-1.9	-7	-6.4	i
CCN(CC)CCNC(=O)c1cc(S(=O)(=O)N2CCc3ccccc32)cn1C	-7	2.1	0.71	3	8	1.6	-2.7	-19	0.2	i
CCN1CCN(C(=O)C2CC(c3ccc(F)cc3)=NO2)CC1 (centres undefined)	0	5.0	0.78	11	13	0.0	-5.9	-10	-0.8	i
COc1ccc(OC)c(S(=O)(=O)N2CCN(C)CC2)c1	-2	4.0	0.66	/	/	/	/	-5	-0.6	/
CN1CCN(CCC(=O)N/N=C/c2cc([N+](=O)[O-])ccc2OC(F)F)CC1	0	/	/	5	4	-1.0	-1.2	9	-0.5	i
COc1ccc(OC)c(N(CC(=O)NCCc2ccc(OC)c(OC)c2)S(=O)(=O)c2ccccc2)c1	0	4.0	0.69	-9	-11	3.9	-4.2	20	-0.4	i
Cn1c(=O)c2cc(S(=O)(=O)NC(C(=O)NCc3cccnc3)c3ccccc3)ccc2n(C)c1=O (centres undefined)	2	-0.5	0.73	7	12	-0.2	-3.8	-21	0.7	i
COc1ccc(-c2cc3ccc(OCC(C)=O)cc3oc2=O)cc1OC	-4	-89	0.7	4	-2	7.4	-1.6	-27	2.2	i
O=S(=O)(NC1CC2CCC1C2)c1ccc(Br)s1 (centres undefined)	/	2.4	0.73	/	/	/	/	21	1.0	/
COc1ccc(NC(=S)N/N=C/c2ccc(F)cc2)cc1OC	-2	/	/	-5	-9	0.3	10.0	-3	0.3	i
O=C(NCc1ccco1)c1cnn2c1NC(c1ccc(Br)cc1)CC2C(F)(F)F (centres undefined)	-1	1.1	0.7	/	/	/	/	24	0.4	/
CCc1cc(=O)oc2cc(OC3CCCCC3=O)ccc12 (centres undefined)	10	-132	0.67	-4	-2	2.5	-1.6	0	0.0	i
Cc1ccc2c(c1)-c1c(ssc1=S)C(C)(C)N2C(=O)CSc1nncn1C	2	0.2	0.7	/	/	/	/	10	0.8	/
COCCCNC(=O)Cc1ccc(-n2c(C)nc3cccnc32)cc1	-7	-5.1	0.68	17	12	5.2	1.4	-10	0.9	i
CCC(=O)NC(NCC1CCCO1)C(Cl)(Cl)Cl (centres undefined)	-1	1.1	0.71	/	/	/	/	-3	-0.2	/
O=C(Oc1ccc(Br)cc1C(=S)N1CCCC1)c1ccccc1Cl	-7	2.9	0.75	/	/	/	/	0	0.6	/
Cc1ccc(S(=O)(=O)CCC(=O)NCc2ccccc2F)cc1	-9	1.4	0.7	0	5	-0.2	-0.4	-1	0.4	i
CCOC(=O)c1ccc2nc(NC(=O)c3cccs3)sc2c1	26	0.4	0.75	/	/	/	/	0	-0.2	/
O=C(Nc1ccccc1)c1ccc(OC(=O)c2cc3ccccc3o2)cc1	-3	-0.4	0.67	/	/	/	/	-7	-5.0	/
O=C1c2ccccc2CN1Cc1ccccc1	-3	4.1	0.68	0	2	-0.6	-0.6	3	0.3	i
COC(=O)c1cc(OC)c(OC)cc1N1C(=O)CC(C)(C)CC1=O	-11	1.1	0.69	/	/	/	/	-4	-0.1	/
CCOC(=O)CNC(=O)CSc1ncnc2c1cnn2Cc1ccccc1	-5	2.5	0.7	/	/	/	/	-8	-1.4	/
COc1cc2c(cc1OC)CN(C(=O)c1ccc([N+](=O)[O-])o1)CC2	-3	5.2	0.63	5	1	2.6	4.4	50	-0.9	i
CCOC(=O)/C(C)=N/Nc1nc(-c2ccc(NC(C)=O)cc2)cs1	3	/	/	-27*	-3.4*	-0.4*	/	1	-0.1	i
CCOc1ccc(NC(=O)CCN2C(=O)c3cccc([N+](=O)[O-])c3C2=O)cc1	-5	5.0	0.68	11	5	-4.0	0.7	-8	2.4	i
CC(=O)Nc1ccc(NC(=O)C(=O)NCC(c2ccco2)N2CCc3ccccc3C2)cc1 (centres undefined)	-9	-2.1	0.69	4	4	3.1	-2.7	18	2.4	i
N#Cc1ccc(-c2csc(NC(=O)C3CC3)n2)cc1	6	-5.3	0.79	-4	9	1.7	-10	-15	-0.5	i
Cc1ccc(NC(=O)C/C(N)=N/O)cc1Cl	-5	4.2	0.64	5	21	0.6	3.8	-22	0.3	i
NCC(=O)NCC(=O)NC[C@H]1O[C@@H](n2cnc3c(N)ncnc32)[C@H](O)[C@@H]1O	/	-0.1	0.71	4	4	-4.8	-3.1	/	/	i
N#CC(C#N)=Cc1cc2ccccc2nc1N1CCOCC1	-4	0.7	0.67	/	/	/	/	-27	0.1	/
O=C(C[n+]1ccc(C(=O)NCc2ccccc2)cc1)c1ccc(Cl)cc1	-4	1.3	0.68	-1	4	0.5	4.9	1	-0.4	i
CN(Cc1ccccc1)S(=O)(=O)c1ccc(S(=O)(=O)N(Cc2ccc(F)cc2)C2CCCC2)cc1	9	0.9	0.78	/	/	/	/	23	0.2	/
O=C(OCC(=O)c1c[nH]c2ccccc12)c1cccc([N+](=O)[O-])c1	2	2.7	0.65	-1	-2	2.3	11	/	-0.9	i
CSc1cnc2c(=O)[nH]c(=O)n(C)c2n1	2	11	0.74	/	/	/	/	-13	0.4	/

Among those listed so far, these contain a thiophene ring, fused or not.
SMILES	Beta cell apopt	UCH37 DUB inh	Ecoli growth	Ecoli rRNA inh	Ecoli rRNA inh OD600	Ecoli rRNA inh RFP	MLL AF4-AF9 inh	T cruzi repl	Bfl-1 A1 inh	FGF22 binding
O=S(=O)(NC1CC2CCC1C2)c1ccc(Br)s1 (centres undefined)	/	2.4	0.73	/	/	/	/	21	1.0	/
CCOC(=O)c1ccc2nc(NC(=O)c3cccs3)sc2c1	26	0.4	0.75	/	/	/	/	0	-0.2	/

Continued:
SMILES	Beta cell apopt	UCH37 DUB inh	Ecoli growth	Ecoli rRNA inh	Ecoli rRNA inh OD600	Ecoli rRNA inh RFP	MLL AF4-AF9 inh	T cruzi repl	Bfl-1 A1 inh	FGF22 binding
CNS(=O)(=O)c1cccc(C(=O)OCC(=O)c2cc3ccccc3o2)c1	-26	-0.9	0.72	19	11	-4.5	-1.5	/	0.9	i
COc1c(N2CCN(C(=S)Nc3ccccc3F)C(C)C2)c(F)cc2c(=O)c(C(=O)O)cn(C3CC3)c12 (centres undefined)	-5	-131	0.071*	-58	-81	-25	1.1	44	0.2	i
N#CCCN(Cc1cccnc1)C(=S)NCc1ccco1	-5	3.2	0.64	21	22	6.0	-2.3	2	-1.0	i
Brc1ccccc1OCCCN1CCCC1	-3	1.9	0.64	-2	-2	-1.1	2.4	?	0.4	i
